# Bioassay records deposited in PubChem BioAssay by National Center for Advancing Translational Sciences (NCATS).
# EPAC1 agonist: Validation qHTS for agonist of cAMP-regulated guanine nucleotide exchange factor 3 (EPAC1). 16,000 compounds, 1% hits. Rap guanine nucleotide exchange factor 3 (Homo sapiens), O95398. EPAC1 Rap1b BODIPY-GDP exchange, fluorescence. Potency, µM, for inactives: max response, positive = active, actives largely listed as activators; active = well fitted activation curve with a large enough effect; inconclusive = small, poorly fitted or top-dose-only effect; inactive = no such curve, though single readings can be large or run the other way;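 also: nearly all actives have a fitted effect of over 70% in size; series mostly up to about 76 or 150 µM; scaled to a cAMP control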
# Target sequence (O95398 whole entry, looked up): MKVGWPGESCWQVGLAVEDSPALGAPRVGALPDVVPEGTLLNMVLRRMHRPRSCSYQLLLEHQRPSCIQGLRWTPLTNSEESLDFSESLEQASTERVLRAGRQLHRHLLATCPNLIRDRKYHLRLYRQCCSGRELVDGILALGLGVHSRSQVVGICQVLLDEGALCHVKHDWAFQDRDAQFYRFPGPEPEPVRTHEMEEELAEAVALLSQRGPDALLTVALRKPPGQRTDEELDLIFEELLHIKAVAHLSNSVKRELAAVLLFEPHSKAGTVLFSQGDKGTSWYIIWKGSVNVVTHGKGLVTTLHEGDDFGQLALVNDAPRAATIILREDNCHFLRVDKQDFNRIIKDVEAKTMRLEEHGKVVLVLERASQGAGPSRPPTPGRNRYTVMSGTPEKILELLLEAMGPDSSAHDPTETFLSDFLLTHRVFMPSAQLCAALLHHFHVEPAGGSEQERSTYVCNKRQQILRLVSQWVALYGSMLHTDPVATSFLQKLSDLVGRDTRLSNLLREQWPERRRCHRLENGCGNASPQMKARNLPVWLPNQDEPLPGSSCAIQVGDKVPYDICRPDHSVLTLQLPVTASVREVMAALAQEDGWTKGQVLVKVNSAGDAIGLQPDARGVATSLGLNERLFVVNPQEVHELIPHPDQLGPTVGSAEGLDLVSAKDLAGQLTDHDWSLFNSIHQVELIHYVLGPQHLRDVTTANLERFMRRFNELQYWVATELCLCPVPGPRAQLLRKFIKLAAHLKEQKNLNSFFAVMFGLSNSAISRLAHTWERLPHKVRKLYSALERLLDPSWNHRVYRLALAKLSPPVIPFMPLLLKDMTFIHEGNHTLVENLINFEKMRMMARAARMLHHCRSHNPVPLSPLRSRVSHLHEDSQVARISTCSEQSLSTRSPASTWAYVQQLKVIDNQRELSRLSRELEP
# * hit, by the source's call; ? = inconclusive; & = joins results of further samples; ! = not active in a repeat; [ ] = remark or other dose. % is scaled to controls: 0 for no effect and ±100 for the full control effect; potency is read from the fitted curve at half-maximal effect. The list is partial; rates above refer to the full screens.
SMILES,EPAC1 agonist
Cc1cnc(C)c(-c2cc(F)cc3c2OC(CNC(=O)CN2CCCC2)C3)n1 (stereo unspecified),6%
N#CCCn1c(=O)c(-c2cc(F)cc(F)c2)nc2cnc(OCc3ccccc3)nc21,-60%[inhibitor]
Cn1c(SCC2CCCO2)nnc1C1CCN(Cc2ccc(-c3cccc(Cl)c3)o2)CC1 (stereo unspecified),3%
CC(=O)Oc1c(C)cccc1C(=O)O,-28%
O=C(Oc1ccccc1)N1CCC2(CC1)CN(c1ccccc1)C2,-27%
O=C(O)c1ccccc1S,-29%
CC(C[N+](C)(C)C)OC(N)=O (stereo unspecified),?
COc1ccc(C2(C(=O)NCC3Cc4cccc(-c5cccnc5)c4O3)CCCC2)cc1 (stereo unspecified),13%
COc1cccc(Cn2c(=O)cnc3cnc(Oc4ccccc4)nc32)c1,14%
COc1ccccc1CN1CCC2(CC1)CCN(S(C)(=O)=O)CC2,-39%[inhibitor]
Clc1ccc2nc[nH]c2c1,18%
COc1ccc(-n2c(=O)c(CCc3ccccc3)nc3cncnc32)cc1,-9%
FC(F)(F)c1ccccc1-c1nccc(NCc2cccs2)n1,-21%
CCCCCCN(CCCCCC)C(=O)Cc1c(-c2ccc(Cl)cc2)[nH]c2ccc(Cl)cc12,-18%&3%
CCNC(=O)[C@@H]1CCCN1C(=O)[C@H](CCCN=C(N)N)NC(=O)[C@H](CC(C)C)NC(=O)[C@@H](CC(C)C)NC(=O)[C@H](Cc1ccc(O)cc1)NC(=O)[C@H](CO)NC(=O)[C@H](Cc1c[nH]c2ccccc12)NC(=O)[C@H](Cc1cnc[nH]1)NC(=O)[C@@H]1CCC(=O)N1,0%

# Pulled one by one from the entries so far, 6 records:
SMILES,EPAC1 agonist
COc1ccc(-n2c(=O)c(CCc3ccccc3)nc3cncnc32)cc1,-9%
CC(C[N+](C)(C)C)OC(N)=O (stereo unspecified),?
COc1ccc(C2(C(=O)NCC3Cc4cccc(-c5cccnc5)c4O3)CCCC2)cc1 (stereo unspecified),13%
CC(=O)Oc1c(C)cccc1C(=O)O,-28%
FC(F)(F)c1ccccc1-c1nccc(NCc2cccs2)n1,-21%
O=C(Oc1ccccc1)N1CCC2(CC1)CN(c1ccccc1)C2,-27%

# Next section.
SMILES,EPAC1 agonist
c1ccc(CNc2ccnc(-c3ccoc3)n2)cc1,-18%
CC(=O)N1CCC2(CCN(Cc3nccs3)CC2)CC1,-60%[inhibitor]
CN(C)[C@@H]1C(=O)C(C(=O)NCN2CCCC2)=C(O)[C@@]2(O)C(=O)C3=C(O)c4c(O)cccc4[C@@](C)(O)C3C[C@@H]12 (stereo partly specified),-30%&7%
Cc1ccccc1CN1[C@@H](CC2CCCCC2)COCCS1(=O)=O,-62%[inhibitor]
C=CC1=C(C(=O)O)N2C(=O)[C@@H](NC(=O)/C(=N/OCC(=O)O)c3csc(N)n3)[C@H]2SC1 (stereo in doubt),-18%
COC(=O)C1N[C@@H]([C@@H](NC(=O)COc2ccccc2)C(=O)NCc2ccsc2)SC1(C)C (stereo partly specified),14%
CCCC(CCC)C(=O)O,?
O=C1NC(=O)[C@H]2[C@@H]1[C@@H]1C=C[C@H]2C1,8%
CC1CC(OC(=O)C(O)c2ccccc2)CC(C)(C)N1C (stereo unspecified),16%&7%
COc1ccc(C(=O)N2CCC3(CCN(Cc4nccs4)CC3)CC2)cc1,-81%[inhibitor]
CC(=O)Oc1cc(C(F)(F)F)ccc1C(=O)O,-12%
CCOC(=O)C[C@H]1c2ccc(C(F)(F)F)cc2S(=O)(=O)N1c1cccc(OC)c1,-50%[inhibitor]
O=C(c1ccncc1)N1CCC2(CC1)CCN(c1ccccc1)CC2,-65%[inhibitor]
CC1OC(OCC2OC(Oc3c(-c4ccc(O)c(O)c4)oc4cc(O)cc(O)c4c3=O)C(O)C(O)C2O)[C@@H](O)C(O)C1O (stereo partly specified),6%
COc1ccccc1CNc1nc(-c2ccccc2CN(C)C)nc2ccccc12,26%
COc1ccc(C2C(=O)c3ccccc3C2=O)cc1,-27%
COc1ccc(Oc2ncc3nc(-c4cn(C)c5ccccc45)c(=O)n(C4CC4)c3n2)cc1,11%
NC(N)=NCCCCN=C(N)N,?
Cc1ccc2c(c1)CN(CCNC(=O)c1cccc(Cn3cccn3)c1)CC(C)O2 (stereo unspecified),1%
Cc1ccc(CN2CCOc3ccc(CN4CCC(O)(c5cccnc5)CC4)cc3C2)cc1C,5%
COc1c2c(cc3occ(-c4ccc5c(c4)OCO5)c(=O)c13)OC(C)(C)C=C2,-9%
COc1ccccc1-c1nc(NCc2ccccc2)c2ccccc2n1,-16%
CCNc1ncc2ncc(=O)n(C)c2n1,-10%
O=c1[nH]c2cc([N+](=O)[O-])c([N+](=O)[O-])cc2[nH]c1=O,-4%&-21%&1%
COc1ccc(-c2oc3cc(O[C@@H]4OC(CO)C(O)C(O)C4O)c(OC)c(O)c3c(=O)c2OC)cc1O (stereo partly specified),11%
NCCCC(=O)O,4%&-6%&13%&5%
O=C(c1ccncc1)N1CCC2(CC1)CN(c1ccncc1)C2,?
N#Cc1cccc(-c2nc(NCc3ccccc3)c3ccccc3n2)c1,11%
CN1CCN(c2ncncc2-c2ccc(C(=O)N(C)C)cc2)CC1,-22%
CN(Cc1ccco1)c1ncnc2ccc(-c3ccc4c(c3)OCO4)cc12,-64%
COc1cccc(-c2ccc3ncnc(Nc4ccccc4)c3c2)c1,?
CS(=O)(=O)N1CCC[C@@]2(CCN(Cc3ccc(C#N)cc3)C2)C1,-40%[inhibitor]
COc1c2occc2cc2ccc(=O)oc12,3%&0%&13%
CC(C)=CCC1C(=O)N(c2ccccc2)N(c2ccccc2)C1=O,-14%
COC(=O)c1c(OCc2ccccc2)cc(=O)n2c1CCN(Cc1cccc(C)n1)CC2,9%
COCCn1c(=O)c(-c2ccccc2)nc2cnc(Oc3cccc(Cl)c3)nc21,-16%
CC(C)(C)C(=O)OCOC(=O)[C@@H]1N2C(=O)[C@@H](NC(=O)[C@H](N)c3ccccc3)[C@H]2SC1(C)C,-15%
C#C[C@]1(O)CC[C@H]2[C@@H]3CCC4=Cc5oncc5C[C@]4(C)[C@H]3CC[C@@]21C,-9%
CCCC1(C)C(C#N)(C#N)C1(C#N)C#N,-1%
Cc1ccc2c(n1)Oc1ccc(C(C)C(=O)OCC(=O)N(C)C)cc1C2 (stereo unspecified),6%&0%
CN(C)c1ccc(N=NS(=O)(=O)O)cc1,-34%[inhibitor]
COc1ccc(O)c(CN2CCC3(CCC(CNC(=O)C4CCCO4)O3)CC2)c1 (stereo unspecified),-19%
CC(=O)O[C@]1(C(C)=O)CC[C@H]2[C@@H]3C=C(Cl)C4=CC(=O)CC[C@]4(C)[C@H]3CC[C@@]21C,23%
CC(=O)N1CCC2(CCCN(Cc3cc(C(F)(F)F)cc(C(F)(F)F)c3)C2)CC1,-114%[inhibitor]
COc1cc(O)c(C(=O)/C=C/c2ccc(OC)c(O)c2)c(OC)c1,100µM*

# Given tab-delimited: part of the list above.
SMILES	EPAC1 agonist
COc1c2occc2cc2ccc(=O)oc12	3%&0%&13%
C#C[C@]1(O)CC[C@H]2[C@@H]3CCC4=Cc5oncc5C[C@]4(C)[C@H]3CC[C@@]21C	-9%
Cc1ccc2c(n1)Oc1ccc(C(C)C(=O)OCC(=O)N(C)C)cc1C2 (stereo unspecified)	6%&0%
COc1cc(O)c(C(=O)/C=C/c2ccc(OC)c(O)c2)c(OC)c1	100µM*

# (next part)
SMILES,EPAC1 agonist
Cc1cc(C)n2nc(C(=O)NCC3Cc4cccc(-c5ccc(S(C)(=O)=O)cc5)c4O3)cc2n1 (stereo unspecified),-7%
OCC1CCCN(c2nc3cc4c(cc3cc2CNCc2cccc(C(F)(F)F)c2)OCO4)C1 (stereo unspecified),-2%
COc1ccc(-c2coc3c(O)c(OC)ccc3c2=O)cc1,28%
CCN(CC)CCOCCOC(=O)C1(c2ccccc2)CCCC1,2%&-38%&13%&2%
COCc1c(C(=O)N2CCN(C3CCCC3)CC2)cnn1-c1ncc2c(n1)-c1ccccc1CCC2,-5%
CCc1nc2cc(C(=O)N3CCCN(C=O)CC3)cc(NC(=O)c3ccccc3OC)c2n1C,6%
NC(=O)c1cc[n+](CC2=C(C(=O)O)N3C(=O)[C@@H](NC(=O)[C@@H](c4ccccc4)S(=O)(=O)[O-])[C@H]3SC2)cc1,-6%
CCCCCCCCCC[n+]1ccc(/C=C/c2c[nH]c3ccccc23)c2ccccc21,-60%[inhibitor]
Cc1ncc([N+](=O)[O-])n1CC(C)O (stereo unspecified),18%
O=S1(=O)CCOC[C@H](CC2CCCCC2)N1Cc1ccc(Cl)cc1,?
O=c1c(-c2cccs2)nc2cncnc2n1C1CC1,-28%
C[C@@H](CN=[N+]=[N-])CN1CC[C@H](O)CCC1=O,20%
Cc1ccc(S[C@@H](CCN2CC[C@H](C(C)(C)C)CCC2=O)c2ccccc2)cc1,?
CN(C)c1ccc(/C=C/c2ccnc3c2ccc2ccccc23)cc1,?
CC#CCC(C)[C@H](O)/C=C/[C@@H]1[C@H]2C/C(=C/CCCC(=O)O)C[C@H]2C[C@H]1O (stereo partly specified),-23%
CC1(C)CCC(C)(C)c2cc(C(=O)Nc3ccc(C(=O)O)cc3)ccc21,-12%
N[C@H](CO)C(=O)O,-4%&-17%&-35%
COC(=O)C1=C(C)NC(C)=C(C(=O)OCCCN2CCC(c3ccccc3)(c3ccccc3)CC2)C1c1cccc([N+](=O)[O-])c1 (stereo unspecified),112µM*!
N=C(N)SCCc1ccc(CCSC(=N)N)cc1,0%
CNc1ncnc2c1ncn2[C@@H]1O[C@H](CO)[C@@H](O)[C@H]1O,-3%&-9%
O=C(C[n+]1cccc2cc(Cl)ccc21)c1ccc(I)cc1,7%
COC(=O)C1N[C@@H]([C@@H](NC(=O)COc2ccccc2)C(=O)NC2CC2)SC1(C)C (stereo partly specified),10%
COc1cc(OC)c2ccc(=O)oc2c1,8%
NC(=S)N/N=C/c1cccnc1,-35%[inhibitor]
O=C(Nc1ccc(Cl)cc1Cl)[C@@H]1CC=C[C@@H]2CCN(Cc3ccccc3)C(=O)[C@@H]21,8%
COc1ccc(CN2CCC3(CCC(CNC(=O)c4ccnn4C)O3)CC2)c(C)c1C (stereo unspecified),-11%
O=c1c2ccccc2oc2cc(O)c(C3COCC(CO)C(O)C(O)C3O)c(O)c12 (stereo unspecified),-33%
C[C@@H]1[C@H](c2ccccc2)OCCS(=O)(=O)N1Cc1ccccc1F,-15%
COC(=O)C[C@H]1c2ccccc2S(=O)(=O)N1c1ccc(N(C)C)cc1,-10%
COC1C(O)C(CO)OC1n1c(Br)nc2c(=O)[nH]c(N)nc21 (stereo unspecified),24%
C=CS(=O)(=O)N(Cc1ccccc1Br)[C@H](CO)CC(C)C,-73%[inhibitor]
CC(O)CO (stereo unspecified),-10%
CSC(N)=NCCC[C@H](N)C(=O)O,-4%
COc1c2c(cc3c1C(CC(=O)c1c(O)c(OC)c4occc4c1OC)[N+](C)(C)CC3)OCO2 (stereo unspecified),-38%[inhibitor]
COc1ccc(-c2coc3cc(O)ccc3c2=O)c(OC)c1O,-29%
COc1ccccc1CCn1c(=O)c(-c2ccc(Cl)cc2)nc2cncnc21,?
Nc1nc2c([nH]c(=S)n2C2OC(CO)C(O)C2O)c(=O)[nH]1 (stereo unspecified),-4%
COc1ccc(CNc2ncnc3ccc(-c4ccccc4CN(C)C)cc23)c(OC)c1,-2%
CCc1c(C(=O)NCCc2ccc(N3CCCCC3)cc2)[nH]c2ccc(Cl)cc12,1%
C[C@](N)(Cc1ccc(O)cc1)C(=O)O,-7%&2%
CC1CN(CCC(=O)N2CCCC(C(=O)c3nccn3C)C2)Cc2cc(Cl)ccc2O1 (stereo unspecified),-21%
CCOC(=O)[C@@H](N)CS,-9%
Nc1nc2c(c(=O)[nH]1)N(C=O)C(CNc1ccc(C(=O)NC(CCC(=O)O)C(=O)O)cc1)CN2 (stereo unspecified),?
O=C(c1ccco1)N1CCC2(CCCN(c3ncccn3)C2)CC1,-41%[inhibitor]
COc1cc(C(=O)N(Cc2cc3ccc(C)cc3nc2N(C)C)C2CC2)cc(OC)c1OC,-3%
COc1cc2c(cc1O)CC[C@@H]1[C@@H]2CC[C@]2(C)[C@@H](O)CC[C@@H]12,-4%
CN1C(=O)CC(c2ccccc2)C1=O (stereo unspecified),18%
CCNc1ncc2nc(-c3ccccc3)c(=O)n(Cc3ccc(F)cc3)c2n1,28%
CC(=O)c1ccccc1C(=O)NCC1Cc2cccc(-c3cccnc3)c2O1 (stereo unspecified),2%
COc1ccccc1-c1nc2cc(C(=O)NC[C@H]3CCc4ccccc4O3)cc(NC(C)=O)c2n1C,-12%
COC(=O)c1cc(-c2c(-c3cc(OC)c(OC)c(OC)c3)noc2C)cc([N+](=O)[O-])c1,?
NC(=O)c1ncn([C@@H]2O[C@H](CO)[C@@H](O)[C@H]2O)c1N,-4%
COCC(=O)Nc1cc(C(=O)N2CCN(C)C(c3ccccc3)C2)c2c(c1)nc(-c1ccncc1)n2C (stereo unspecified),-9%
Cc1ccccc1-c1nccc(NCc2cccnc2)n1,7%
CCC1CN(CC(=O)N(C)Cc2nc3ccccc3[nH]2)Cc2cc(OC)ccc2O1 (stereo unspecified),1%
CCCCCC(O)c1cccc(OCc2ccc3ccccc3n2)c1 (stereo unspecified),28%&2%
COc1ccc(/C=N/NC(=O)c2ccncc2)c(C(=O)O)c1OC,-9%
O=c1cnc2cnc(Oc3ccccc3)nc2n1Cc1cccs1,10%

# Quoted from the listing.
# For EPAC1 agonist, `CCCCCC(O)c1cccc(OCc2ccc3ccccc3n2)c1` (stereo unspecified) is entered as 28%&2%
# For EPAC1 agonist, `CC(=O)c1ccccc1C(=O)NCC1Cc2cccc(-c3cccnc3)c2O1` (stereo unspecified) is entered as 2%
# For EPAC1 agonist, `Cc1ccccc1-c1nccc(NCc2cccnc2)n1` is entered as 7%

# Records listed above that bear a hit mark in EPAC1 agonist.
SMILES,EPAC1 agonist
COc1cc(O)c(C(=O)/C=C/c2ccc(OC)c(O)c2)c(OC)c1,100µM*
COC(=O)C1=C(C)NC(C)=C(C(=O)OCCCN2CCC(c3ccccc3)(c3ccccc3)CC2)C1c1cccc([N+](=O)[O-])c1 (stereo unspecified),112µM*!
